# UUG fidelity: modulators of yeast start codon fidelity, primary screen, whole organism, S. cerevisiae, single point, plate reader; S. cerevisiae UUG-firefly luciferase reporter, luminescence/redox ratio; activity score, % at 18.7 µM; actives 0.13% (n = 350,000); AID 602363, 2012;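 active = replicate mean at a twofold rise or more, about +100% in these data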;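 note: firefly luciferase made from a UUG start codon reports start codon fidelity; reporter light over untreated wells divided by growth signal over untreated wells; some hits fall short of that in this replicate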
# Env fusion inh: inhibitors of HIV-1 Env-driven cell-cell fusion, primary screen, HeLa-JRFL effector, CEM21 target cells, luciferase; AID 651610, 2012; actives 1.1% (n = 360,000); inhibition, % at 12.3 µM;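 active = mean replicate inhibition score of at least 50 and every replicate individually at or above 50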;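 note: 0% = plate neutral controls and 100% = maraviroc near 300 nM; one replicate is shown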
# An asterisk follows results filed as active; [ ] = remark or other dose. The list is partial (hit frequency here may not be typical).
SMILES,UUG fidelity,Env fusion inh
COCC(=O)Nc1ccc2c(c1)C(=O)N(C)[C@H]1CC[C@H](CC(=O)NCc3ccccc3)O[C@H]1CO2,1.1,2.3[16.7 µM]
C[C@H](CO)N1C[C@H](C)[C@H](CN(C)C)Oc2cc(C#CC(C)(C)O)ccc2S1(=O)=O,0.7,-58.7[16.7 µM]
CCC(=O)N(C)C[C@@H]1Oc2ncc(-c3ccc(C)cc3)cc2C(=O)N([C@@H](C)CO)C[C@H]1C,3.4,19.0[16.7 µM]
CO[C@H]1CN(C)C(=O)c2cc(NC(=O)C3CCOCC3)ccc2OC[C@H](C)NC[C@@H]1C,-9.1,5.3[16.7 µM]
COc1ccc(NC(=O)Nc2ccc3c(c2)C(=O)N([C@H](C)CO)C[C@H](C)[C@@H](CN(C)C(=O)C2CCCCC2)OCCCC[C@H](C)O3)cc1,-5.0,-5.2[16.7 µM]
C[C@H]1CN([C@@H](C)CO)S(=O)(=O)c2ccc(-c3ccc(C#N)cc3)cc2O[C@@H]1CN(C)C(=O)CN(C)C,-0.7,11.3[16.7 µM]
O=C(NCC[C@H]1CC[C@@H](NC(=O)C2CCCC2)[C@@H](CO)O1)c1cc(Cl)cc(Cl)c1,1.8,-11.2[16.7 µM]
CCNC(=O)C[C@H]1CC[C@@H]2[C@H](COc3ccc(NC(=O)c4cscn4)cc3C(=O)N2C)O1,-25.3,8.9[16.7 µM]
CN(C)C(=O)c1cccc(-c2ccc([C@H]3[C@@H](CO)N(C(=O)C4CCCCC4)[C@H]3C#N)cc2)c1,10.7,-6.3[16.7 µM]
CCOc1ccc(N2C(=O)CSC2c2cccc([N+](=O)[O-])c2)cc1 (stereo unspecified),-6.2,-2.2[16.7 µM]
CO[C@H]1CN(C)C(=O)c2cc(NS(=O)(=O)c3ccc(C)cc3)ccc2OC[C@H](C)N(Cc2nccs2)C[C@H]1C,8.5,0.6[16.7 µM]
C[C@@H]1CN([C@H](C)CO)C(=O)Cc2cc(NC(=O)C3CC3)ccc2O[C@H]1CN(C)C(=O)NC1CCCCC1,-2.2,-40.1[16.7 µM]
C[C@@H]1CN([C@@H](C)CO)C(=O)c2cc(NC(=O)Nc3ccc4c(c3)OCO4)ccc2O[C@@H]1CN(C)Cc1ccc(-c2ccccc2)cc1,-2.3,-14.2[16.7 µM]
COc1ccc(CN(C)C[C@H]2Oc3c(NC(=O)Nc4ccc(OC)cc4)cccc3C(=O)N([C@H](C)CO)C[C@H]2C)cc1,17.8,-35.5[16.7 µM]
C[C@H]1CCCCO[C@@H](CN(C)C(=O)CCCN(C)C)[C@@H](C)CN([C@@H](C)CO)C(=O)c2cc(NC(=O)c3ccccc3)ccc2O1,16.0,4.2[16.7 µM]
C[C@@H]1CN([C@@H](C)CO)C(=O)c2cccc(NC(=O)Nc3ccc(F)cc3)c2O[C@H]1CN(C)CC1CCCCC1,14.9,15.2[16.7 µM]
COc1ccc(NC(=O)N(C)C[C@@H]2Oc3ccc(NC(=O)Cc4ccccc4)cc3CC(=O)N([C@@H](C)CO)C[C@@H]2C)cc1,-15.8,3.7[16.7 µM]
C[C@@H]1CCCCO[C@@H](CN(C)CC2CCCCC2)[C@@H](C)CN([C@@H](C)CO)C(=O)c2cc(NS(=O)(=O)c3ccccc3)ccc2O1,50.2,-58.4[16.7 µM]
COc1ccc(CNC(=O)C[C@@H]2C=C[C@H](NC(=O)c3ccc4c(c3)OCO4)[C@@H](CO)O2)cc1,-11.2,-3.3[16.7 µM]
CN1C(=O)c2cc(NC(=O)c3cscn3)ccc2OC[C@H]2O[C@H](CC(=O)N3CCCCC3)CC[C@H]21,-7.3,8.1[16.7 µM]
CN(C)C(=O)c1ccc(-c2ccc([C@@H]3[C@@H](CO)N(C(=O)C4CCOCC4)[C@H]3C#N)cc2)cc1,12.9,-7.4[16.7 µM]
Cc1ccc(S(=O)(=O)Nc2ccc3c(c2)C(=O)N([C@@H](C)CO)C[C@H](C)[C@H](CN(C)CC2CCCCC2)O3)cc1,2.6,-6.8[16.7 µM]
COC(=O)c1c2oc(c1C(=O)OC)C(=O)N[C@@H](Cc1ccccc1)Cn1cc(nn1)CNC(=O)[C@H](Cc1ccccc1)NC(=O)N[C@@H](CO)CC2,112.9*,14.4[16.7 µM]
C[C@@H]1CN([C@@H](C)CO)C(=O)c2cc(/C=C/c3ccccc3)cnc2O[C@@H]1CN(C)C(=O)c1cnccn1,16.6,19.3[16.7 µM]
CO[C@@H]1CN(C)C(=O)c2ccc(NS(=O)(=O)c3ccccc3)cc2OC[C@H](C)N(Cc2nccs2)C[C@H]1C,-2.5,-30.1[16.7 µM]
Cc1noc(C)c1NC(=O)N(C)C[C@H]1Oc2ncc(C#CC3CC3)cc2C(=O)N([C@H](C)CO)C[C@H]1C,-0.5,-10.6[16.7 µM]
CO[C@@H]1CN(C)C(=O)c2ccc(NC(=O)Nc3ccccc3Cl)cc2OC[C@@H](C)N(C(C)=O)C[C@H]1C,26.0,8.8[16.7 µM]
CC(C)C(=O)Nc1ccc2c(c1)C(=O)N(C)[C@H]1CC[C@@H](CC(=O)NCc3ccccc3)O[C@@H]1CO2,0.3,2.3[16.7 µM]
C[C@@H]1CCCCO[C@H](CN(C)C(=O)c2ccncc2)[C@H](C)CN([C@H](C)CO)C(=O)c2cc(N(C)C)ccc2O1,9.8,0.9[16.7 µM]
C[C@@H]1CN([C@@H](C)CO)C(=O)c2cc(NS(=O)(=O)c3ccccc3)ccc2O[C@H]1CN(C)S(=O)(=O)c1ccccc1,11.9,-7.9[16.7 µM]

# Additional records
Structure | UUG fidelity | Env fusion inh
C[C@@H]1CCCCO[C@@H](CN(C)C(=O)CCCN(C)C)[C@@H](C)CN([C@H](C)CO)C(=O)c2cc(NS(=O)(=O)c3cccs3)ccc2O1 | -8.5 | -1.5[16.7 µM]
C[C@H]1CN([C@@H](C)CO)C(=O)c2cc(Br)cnc2O[C@@H]1CN(C)C(=O)C1CCOCC1 | -6.8 | -10.0[16.7 µM]
C[C@@H]1CN([C@@H](C)CO)C(=O)c2cccc(NC(=O)C3CCCCC3)c2O[C@@H]1CN(C)Cc1ccc(C(=O)Nc2ccccc2N)cc1 | -5.6 | -34.9[16.7 µM]
C[C@H](NC(=O)C[C@H]1CC[C@H]2[C@@H](COC[C@@H](O)CN2Cc2cc(F)ccc2F)O1)c1ccccc1 | 5.2 | -4.6[16.7 µM]
COCC#Cc1ccc2c(c1)O[C@@H](CN(C)C(=O)CN(C)C)[C@H](C)CN([C@H](C)CO)S2(=O)=O | 0.8 | -9.1[16.7 µM]
C[C@H]1CN([C@@H](C)CO)C(=O)Cc2cc(NC(=O)Cn3cnnn3)ccc2O[C@@H]1CN(C)S(=O)(=O)c1cccs1 | 10.8 | -2.3[16.7 µM]
CCCNC(=O)Nc1ccc2c(c1)C(=O)N(C)[C@@H]1CC[C@H](CC(=O)NC3CCC3)O[C@@H]1CO2 | -1.6 | -6.8[16.7 µM]
CC(C)CC#Cc1cnc2c(c1)C(=O)N([C@@H](C)CO)C[C@@H](C)[C@@H](CN(C)C(=O)NC1CCCC1)O2 | -5.3 | 7.7[16.7 µM]
Cc1ccc(S(=O)(=O)Nc2cccc3c2O[C@@H](CN(C)Cc2ccc(Oc4ccccc4)cc2)[C@@H](C)CN([C@@H](C)CO)C3=O)cc1 | -0.1 | 35.6[16.7 µM]
C[C@H](CO)N1C[C@H](C)[C@@H](CN(C)C(=O)Nc2cc(F)ccc2F)Oc2cc(-c3ccc(C#N)cc3)ccc2S1(=O)=O | -10.4 | 6.1[16.7 µM]
Cc1noc(C)c1NC(=O)N(C)C[C@@H]1Oc2ccc(NS(=O)(=O)c3cccs3)cc2CC(=O)N([C@H](C)CO)C[C@H]1C | 5.1 | -40.6[16.7 µM]
C[C@H](CO)N1C[C@H](C)[C@H](CN(C)Cc2ccncc2)OCCCC[C@H](C)Oc2ccc(NC(=O)Nc3ccc4c(c3)OCO4)cc2C1=O | -4.8 | 36.9[16.7 µM]
COCCOC(=O)N1C(=O)[C@@]2(c3cc(C#Cc4ccc(OC)cc4)ccc31)[C@H](C(=O)N1CCN(c3ncccn3)CC1)[C@H]1C(=O)O[C@H](c3ccccc3)[C@H](c3ccccc3)N1[C@@H]2c1ccc(OCCO)cc1 | -6.4 | 9.9[16.7 µM]
CC(C)NC(=O)N(C)C[C@@H]1Oc2cc(-c3ccncc3)ccc2S(=O)(=O)N([C@@H](C)CO)C[C@H]1C | -10.0 | -32.9[16.7 µM]
CCCCc1cn(C[C@H](Cc2ccccc2)NC(=O)N[C@H](CO)CCc2oc(C(C)=O)c(C(=O)OC)c2C(=O)OC)nn1 | -15.1 | -17.2[16.7 µM]
CN(C)CC(=O)N[C@@H]1CC[C@H](CCNC(=O)C2CCCCC2)O[C@H]1CO | 3.4 | -16.5[16.7 µM]
C[C@@H]1CN([C@@H](C)CO)C(=O)c2cc(NS(=O)(=O)c3ccc(F)cc3)ccc2O[C@@H](C)CCCCO[C@H]1CN(C)Cc1ccc(C(F)(F)F)cc1 | 10.0 | 23.7[16.7 µM]
CCC(=O)Nc1ccc2c(c1)C(=O)N(C)[C@H]1CC[C@@H](CC(=O)NCc3ccccc3Cl)O[C@H]1CO2 | 28.4 | -3.7[16.7 µM]
C[C@@H]1CN([C@H](C)CO)C(=O)c2cc(-c3cccc(F)c3)cnc2O[C@@H]1CN(C)Cc1ccccc1 | -5.5 | 6.0[16.7 µM]
CCC(=O)Nc1ccc2c(c1)C(=O)N(C)[C@@H]1CC[C@@H](CC(=O)N[C@H](C)c3ccccc3)O[C@H]1CO2 | 2.5 | 11.7[16.7 µM]
Cc1ccc(S(=O)(=O)NCC[C@H]2CC[C@H](NC(=O)CCN3CCCCC3)[C@@H](CO)O2)cc1 | -2.2 | -21.3[16.7 µM]
CO[C@@H]1CN(C)C(=O)c2cc(NC(C)=O)ccc2OC[C@@H](C)N(C(=O)c2cccnc2)C[C@H]1C | -2.5 | -2.0[16.7 µM]
C[C@@H]1CN([C@H](C)CO)S(=O)(=O)c2ccc(-c3ccncc3)cc2O[C@@H]1CN(C)Cc1ccccn1 | -17.2 | 20.5[16.7 µM]
CC(C)NC(=O)N[C@@H]1C=C[C@H](CC(=O)NCCCN(C)C)O[C@@H]1CO | -2.1 | -10.1[16.7 µM]

# The closing four records of the section above open the next one.
Structure | UUG fidelity | Env fusion inh
Cc1ccc(S(=O)(=O)NCC[C@H]2CC[C@H](NC(=O)CCN3CCCCC3)[C@@H](CO)O2)cc1 | -2.2 | -21.3[16.7 µM]
CO[C@@H]1CN(C)C(=O)c2cc(NC(C)=O)ccc2OC[C@@H](C)N(C(=O)c2cccnc2)C[C@H]1C | -2.5 | -2.0[16.7 µM]
C[C@@H]1CN([C@H](C)CO)S(=O)(=O)c2ccc(-c3ccncc3)cc2O[C@@H]1CN(C)Cc1ccccn1 | -17.2 | 20.5[16.7 µM]
CC(C)NC(=O)N[C@@H]1C=C[C@H](CC(=O)NCCCN(C)C)O[C@@H]1CO | -2.1 | -10.1[16.7 µM]
C[C@@H]1CN([C@H](C)CO)S(=O)(=O)c2ccc(C#CC3(O)CCCC3)cc2O[C@@H]1CN(C)CC1CC1 | -11.3 | -30.1[16.7 µM]
C[C@@H]1CN([C@H](C)CO)C(=O)c2cc(C#CCc3ccccc3)cnc2O[C@H]1CN(C)CC1CCOCC1 | 13.4 | 8.4[16.7 µM]
C[C@@H]1CN([C@@H](C)CO)C(=O)c2cc(NS(=O)(=O)c3ccc(F)cc3)ccc2O[C@@H](C)CCCCO[C@@H]1CN(C)C(=O)CCC(F)(F)F | 5.6 | -51.1[16.7 µM]
O=C(N[C@H]1C=C[C@H](CC(=O)N2CCc3ccccc3C2)O[C@H]1CO)C1CCC1 | 0.7 | -12.0[16.7 µM]
CNC[C@@H]1Oc2c(N)cccc2C(=O)N([C@H](C)CO)C[C@H]1C | -2.3 | -25.0[16.7 µM]
COc1ccc(CN(C)C[C@@H]2OCCCC[C@@H](C)Oc3ccc(NS(=O)(=O)c4ccc(Cl)cc4)cc3C(=O)N([C@@H](C)CO)C[C@@H]2C)cc1 | -4.3 | -0.8[16.7 µM]
COc1ccc(S(=O)(=O)N(C)C[C@H]2OCCCC[C@H](C)Oc3ccc(NC(=O)C4CCCCC4)cc3C(=O)N([C@@H](C)CO)C[C@@H]2C)cc1 | 19.9 | -67.6[16.7 µM]
C[C@@H]1CN([C@H](C)CO)C(=O)c2cc(NC(=O)CCCN(C)C)ccc2O[C@@H](C)CCCCO[C@@H]1CN(C)Cc1ccc(C(F)(F)F)cc1 | 7.5 | 8.3[16.7 µM]
C[C@H]1CN([C@@H](C)CO)C(=O)c2cccc(NC(=O)C3CC3)c2O[C@H]1CN(C)C(=O)Nc1cccc2ccccc12 | 9.7 | -14.4[16.7 µM]
O=C(N[C@H]1CC[C@@H](CCn2cc(-c3ccccc3)nn2)O[C@@H]1CO)c1ccccc1F | 7.1 | 9.9[16.7 µM]
CO[C@@H]1CN(C)C(=O)c2cc(NS(=O)(=O)c3ccc(C)cc3)ccc2OC[C@H](C)N(Cc2nccs2)C[C@@H]1C | 16.7 | 35.4[16.7 µM]
C[C@H](CO)N1C[C@H](C)[C@H](CN(C)Cc2ccc(F)cc2)Oc2ncc(-c3cccc(F)c3)cc2C1=O | 4.2 | 20.8[16.7 µM]
C[C@@H]1CCCCO[C@@H](CN(C)C(=O)Nc2cccc3ccccc23)[C@H](C)CN([C@H](C)CO)C(=O)c2cc(NS(=O)(=O)c3ccc(F)cc3)ccc2O1 | -4.8 | 11.6[16.7 µM]
O=C(NC1CCCC1)N[C@H]1C=C[C@@H](CC(=O)N2CCOCC2)O[C@@H]1CO | 10.6 | -14.0[16.7 µM]
COCC#Cc1ccc2c(c1)O[C@@H](CN(C)C(=O)C1CCCCC1)[C@@H](C)CN([C@H](C)CO)S2(=O)=O | 14.1 | -2.9[16.7 µM]

# From PubChem
